Sa ugtP lethal – growth inhibition of S. aureus ugtP deletion strain. AID 1259309. S. aureus RN4220 ugtP deletion, OD600 growth, 16 h; some inactives read as strong as hits. hit rate 0.54% among 330,000. growth inhibition, % (no concentration beside the values);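 active means z-score under -3 and OD600 up to 0.15 on both plates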;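 further: plate controls were untreated wells for no effect and antibiotic for full effect; wells of about 80 µL received 100 nL stock; the first replicate is given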
Sa RN4220 lethal – kills Staphylococcus aureus RN4220; AID 1259311; hit rate 0.33% among 330,000; S. aureus RN4220 growth, OD600, 16 h; inhibition, % (test concentration not listed);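 active means z-score of -3 or lower and OD600 up to 0.18 on both plates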;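 further: plate controls were untreated cells for no effect and reference antibiotic for full effect; stock transfer was 100 nL into about 80 µL; one replicate is shown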
Autofluor counter – flagged as autofluorescent in microsphere protease counterscreen; hit rate 3.1% among 360,000; AID 624483; compound autofluorescence counterscreen, microsphere flow cytometry; active compounds read high; fluorescence intensity (no concentration beside the values);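 active means at least 3 SD above the mean of all compounds, about 16000 in these data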;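 further: 100 nL of 1 mM stock went into each well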
Mtb hypoxia inh – inhibitors of hypoxia-regulated fluorescent reporter in Mycobacterium tuberculosis; hit rate 0.1% among 300,000; M. tuberculosis hypoxia-regulated fluorescent reporter, fluorescence; AID 1159583; fluorescence inhibition, % (concentration not given with the values);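 active means 35 to 45% if threefold the growth effect, above 45% if 1.5-fold the growth effect; inactive means the rest, general growth blockers included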;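 further: wells of about 50 µL received 100 nL stock; 0% = vehicle wells and 100% = reference inhibitor wells; whole bacteria with a GFP reporter of the hypoxia response; strong numbers were not always called active; many hits fall short of the cut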
PrP 5UTR inh – suppresses PrP 5' UTR mRNA reporter expression | hit rate 0.35% among 340,000 | inhibition, % (concentration not given with the values) | cell-based PrP 5' UTR mRNA reporter, plate reader;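 active means every replicate at 50% or more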;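 further: 0 = median of the neutral control wells; tested in H4 reporter cells; numbers are from one replicate; inactives centre near -14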
BJeLR viability – kills HRASV12-expressing BJeLR cells; BJeLR (HRASV12) viability, CellTiter-Glo ATP luminescence, 48 h; reference of the scale not given here; inhibition, % (concentration not given with the values); hit rate 0.17% among 300,000;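 active means replicate mean above 50%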;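 further: 50 nL library stock added to about 25 µL; numbers are from one replicate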
Mtb hypoxia inh growth – further read-out of Mtb hypoxia inh, marked with its call; growth inhibition, %; measured here: M. tuberculosis growth (absorbance);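 0% = vehicle and 100% = reference antibiotic; read after six days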
Active calls of the source: *; . = no result given; & = joins results of further samples.

SMILES	Sa ugtP lethal	Sa RN4220 lethal	Autofluor counter	Mtb hypoxia inh	Mtb hypoxia inh growth	PrP 5UTR inh	BJeLR viability
Cc1cc(Br)c(NC(=O)COC(=O)C2CC2C)c(Br)c1 (stereo unspecified)	2	4.6	2383	0	1	-12	0
Cc1ccc(CNC(=S)Nc2cc(C(=O)O)ccc2C)cc1	-2	0.3	2768	2	0	-39	12
COC(CC(O)CC(=O)C(C)OCc1ccccc1)OC (stereo unspecified)	5&10&5	-1.0&7.9&-0.2	.	10&15&14	11&3&10	.	.
CCn1c(O)c(N=Nc2ccc(Cl)c(C(=O)O)c2)c2ccccc21	14	8.2	3628	6	2	-3	-11
COc1cccc(C(=O)Oc2ccc(/C=N/Nc3ccc(C(=O)O)cc3)cc2OC)c1	.	.	3337	.	.	-49	-2
CC(C)CC(=O)NC(=S)NNC(=O)c1ccc([N+](=O)[O-])cc1	4	15	2284	15	14	-6	11
CSc1nnc(C)c(=O)n1COC(=O)c1ccc(S(=O)(=O)N2CCCC2)cc1	11	6.8	2580	-5	-6	-11	-17
c1ccc(-c2ccc(CN3CCN(c4ncccn4)CC3)cc2)cc1	2	-5.5	16137*	10	3	-18	-2
COc1ccc(-c2csc(NC3CCCCC3)n2)c(OC)c1	2	4.6	4320	-19	-4	-26	-9
O=C(Nc1ccc(F)cc1F)c1cc2ncc(Br)cn2n1	5	-2.2	.	.	.	.	-2
CC1=NN(C(N)=S)C(=O)C1N=Nc1ccccc1C(=O)O (stereo unspecified)	3	3.6	3735	4	6	-11	0
CCN(CC)CCCNC(=O)C(C)n1c2ccccc2c2nc(=O)cc(C)n21 (stereo unspecified)	3	2.8	3328	4	-6	-20	5
CC(C)CNC(=O)COC(=O)/C=C/c1ccco1	16	3.6	2146	-2	2	-3	-6
C/C(=N/NS(=O)(=O)c1ccc(C)cc1)c1ccc2c(c1)OCO2	.	.	5645	.	.	-39	-1
O=C(NCC1CCCO1)c1ccc2c(c1)N(Cc1ccc(F)cc1)CCS2 (stereo unspecified)	0	-3.9	4661	16	8	-20	-5
O=C(NCCN1C(=O)C2C3C=CC(C3)C2C1=O)Nc1ccccc1 (stereo unspecified)	6	3.6	4365	.	.	-8	-14
CCCSc1nc2ccccc2n1CC(=O)O	2	3.2	4170	5	-2	-9	0
CN1CCN(S(=O)(=O)c2cccc(C(=O)Nc3sccc3C(N)=O)c2)CC1	-4	0.7	3634	3	-2	-6	.
O=C1c2ccccc2C(=O)N1CC1c2ccccc2CCN1C(=O)N1CCOCC1 (stereo unspecified)	2	-6.0	2886	15	9	-14	-7
CC1CCCCN1CC(=O)NC(c1ccccc1)c1ccccc1 (stereo unspecified)	3	2.3	3702	20	3	-5	-5
Cc1ccc(C(=O)NNC(=O)C(C)Sc2nc(N)cc(N)n2)cc1 (stereo unspecified)	-1	1.9	9476	8	8	-19	-7
CC(=O)OC(C(=O)N1CCOCC1)c1c(F)cccc1F (stereo unspecified)	5	3.5	2503	18	13	-5	-6
N#CCC(=O)NN=Cc1cc(-c2ccccc2)n(-c2ccc(Cl)cc2)c1-c1ccccc1	1	2.0	.	4	2	.	.
CCCc1cc(=O)[nH]c(SCC(=O)N(CC)c2c(N)n(Cc3ccccc3)c(=O)[nH]c2=O)n1	1	1.2	5942	6	1	-10	-3
O=C(CCc1ccccc1)Nc1nc2nc(-c3ccccc3)cc(=O)n2[nH]1	-4	-4.9	3396	.	.	-1	-1
CCNS(=O)(=O)c1ccc2nc(NC(=O)/C=C/c3cc(OC)c(OC)c(OC)c3)sc2c1	-2	2.8	2060	-2	9	-13	-2
Nn1c(C2CCCCC2)nc2ccccc2c1=O	0	2.0	5194	2	7	-2	3
COc1ccccc1N1CCN(C(=O)c2sc3nc(-c4ccccc4)cn3c2C)CC1	-25	5.8	7760	1	6	-26	-13
COc1ccccc1C(C)NC(=O)c1ccc(NC(=O)CC2SC(N3CCCC3)=NC2=O)cc1 (stereo unspecified)	2	-0.8	3875	6	12	-7	.
COCc1cc(C)nc2sc(C(=O)Nc3nccs3)c(N)c12	4	3.9	6249	4	-4	-16	-2
COc1ccc(C2=NNC(c3cccnc3)=Nc3ccc(OC)cc32)cc1	14	3.5	4679	-6	-5	-14	-5
CC(C)n1c(CN(C)c2ccccc2)nc2ccccc21	12	-2.8	3758	11	20	-9	7
COc1ccc(OCc2cc(C(=O)NC(C)Cc3cnccn3)no2)c(Cl)c1 (stereo unspecified)	2	-1.1	5855	0	3	-79	1
CCCN(CC(=O)Nc1ccccc1C)C(=O)CCNC(=O)c1ccccc1Cl	3	1.8	5592	3	0	-5	8
CC(C)C1N=C2c3ccccc3N=C(SCC#N)N2C1=O (stereo unspecified)	-2	5.5	3346	8	5	-3	-7
CCCCCCc1c(C)c2ccc(OCC(=O)N3CCC[C@H]3C(=O)O)c(C)c2oc1=O	-8	1.5	6469	.	.	-23	-1
O=C1c2ccccc2NC(c2ccc(Cl)cc2Cl)N1O (stereo unspecified)	-6	-9.4	2441	16	11	20	9
Cc1ccc2nc(-c3ccncc3)c(NC3CCCC3)n2c1	6	1.1	3297	4	-2	-26	5
CC(=O)c1ccccc1NC(=O)COC(=O)/C=C/c1ccc(OC(F)F)cc1	4	4.2	4771	9	0	-20	-6
Cc1ccc(S(=O)(=O)NCc2ccc(C(=O)N3CCN(c4ccc([N+](=O)[O-])cc4)CC3)cc2)cc1	-16	-3.6	4789	7	-3	-22	-4
CC(=O)N1CCSc2ccc(S(=O)(=O)NCCc3ccc(Cl)cc3)cc21	7	6.4	5707	-5	-6	4	-13
COc1cccc(NC(=O)CSc2nc3c(oc4ccccc43)c(=O)[nH]2)c1	.	.	7490	.	.	-15	5
CC1CCN(c2ccc(C(=O)N3CCOCC3)cc2[N+](=O)[O-])CC1	5	1.9	3136	13	16	-19	4
O=C(Nc1nnc(-c2ccco2)o1)c1ccc2ccccc2c1	-16	23	2013	-8	12	-7	5
O=S(=O)(N/N=C\C=C\c1ccccc1)c1ccc(Br)cc1	.	.	2646	.	.	2	11
Cc1cc(C(=O)OCC(=O)N2CCOCC2)ccc1[N+](=O)[O-]	4	2.5	4127	9	2	-11	-9
COC(=O)c1c(NC(=O)CSc2ncnc3[nH]ncc23)sc2c1CCC2	-6	4.6	4032	17	6	-22	7
O=C(Nc1ccc(F)cc1)c1nc(S(=O)(=O)Cc2ccccc2)ncc1Cl	.	.	4328	.	.	-7	36
CC(=O)Nc1ccc(NC(=O)C(C)OC(=O)CSCc2cccc(Cl)c2)cc1 (stereo unspecified)	.	.	4766	.	.	-16	-1
CC(=O)Nc1c(Cl)cc(Cl)c2c1Cc1cc(Cl)ccc1-2	3	0.0	3762	20	8	-6	.
O=C(C1CCCCC1)N1CCc2[nH]c3ccc(F)cc3c2C1	-7	8.9	4265	8	4	-2	3
COCCCn1c(-c2ccccc2)nc2ccccc2c1=O	-3	-15	3447	11	13	-10	1
Nc1c(N2CCCC2)c2ccccc2oc1=O	10	3.5	5786	-7	-9	-34	0
C[C@H](CO)NC(=O)[C@H](C)[C@H]1C[C@]1(C)[C@H](NC(=O)OCc1ccccc1)c1ccccc1	.	.	3576	.	.	-31	-3
CCOC(=O)Cc1nnc(NC(=O)CSc2nncn2C)s1	1	1.1	7900	9	4	-26	-11
CNc1nc(-c2ccc3c(c2)CCN3C(=O)c2ccc(F)cc2)cs1	-2	4.1	2297	-7	-1	-60	.
O=C(CC1C(=O)NCCN1C1CCCC1)NCc1cccc(OC(F)(F)F)c1 (stereo unspecified)	.	.	5853	.	.	5	9
O=[N+]([O-])c1cccc(S(=O)(=O)c2cccc([N+](=O)[O-])c2)c1	1	10	4755	-2	2	-24	0
Cc1cc(NS(=O)(=O)c2ccc(NC(=O)CSc3nnc(-c4ccco4)n3Cc3ccco3)cc2)nc(C)n1	1	4.9	2958	1	9	-24	7
O=C(CSc1ccc(Cl)cc1)NNC(=O)c1ccncc1	7	3.3	5980	.	.	-12	.

One compound at a time, from the list above:
Results for Cc1cc(NS(=O)(=O)c2ccc(NC(=O)CSc3nnc(-c4ccco4)n3Cc3ccco3)cc2)nc(C)n1 → Sa ugtP lethal: 1; Sa RN4220 lethal: 4.9; Autofluor counter: 2958; Mtb hypoxia inh: 1; Mtb hypoxia inh growth: 9; PrP 5UTR inh: -24; BJeLR viability: 7
Results for COCCCn1c(-c2ccccc2)nc2ccccc2c1=O → Sa ugtP lethal: -3; Sa RN4220 lethal: -15; Autofluor counter: 3447; Mtb hypoxia inh: 11; Mtb hypoxia inh growth: 13; PrP 5UTR inh: -10; BJeLR viability: 1
Results for Cc1cc(C(=O)OCC(=O)N2CCOCC2)ccc1[N+](=O)[O-] → Sa ugtP lethal: 4; Sa RN4220 lethal: 2.5; Autofluor counter: 4127; Mtb hypoxia inh: 9; Mtb hypoxia inh growth: 2; PrP 5UTR inh: -11; BJeLR viability: -9

Next compounds
SMILES	Sa ugtP lethal	Sa RN4220 lethal	Autofluor counter	Mtb hypoxia inh	Mtb hypoxia inh growth	PrP 5UTR inh	BJeLR viability
CC(=O)Nc1ccccc1OC(C)C(=O)NC(C)c1ccc(F)cc1 (stereo unspecified)	7	4.0	2053	9	6	-4	-15
CCc1ccc(OCC(=O)NN=C2CC(=O)c3ccccc32)cc1	-11	2.9	.	4	4	.	.
Cc1ccc(C)n1NC(=O)c1ccccc1O	-6	-2.4	4572	5	5	-53	19
COc1ccc(CN2CCN(C(=O)c3ccco3)CC2)cc1OC	-1	0.1	2495	-7	-1	8	-4
C=C(C)CSc1nc(C)c(Cc2ccccc2)c(=O)[nH]1	4	7.8	3286	-8	6	-14	-3
O=C(NCCCSc1ccccc1)c1cc(Cl)ccc1O	89*	93*	5555	17	8	-15	-2
NC(=O)C1=CC(c2ccc(C(F)(F)F)cc2)CC(OCCCCO)O1 (stereo unspecified)	-7&-6	7.8&7.3	.	9&19	4&11	.	.
Cc1ccc(-n2c(-c3ccncc3)nnc2-c2cccs2)cc1	-6	5.5	15997	11	5	5	8
O=c1oc2ccccc2c2[nH]ccc12	0	2.9	3647	3	-3	-5	-7
Cc1cccc(-n2nc3c(c2NC(=O)C2CC2)CS(=O)(=O)C3)c1C	4	4.4	5727	6	-7	-14	-8
CCCC(=O)Nc1cc(C)cn(Cc2c(F)cccc2Cl)c1=O	2	-0.1	3838	5	2	-18	-2
C=CCSc1n[nH]c(=O)n1-c1cccc(C(F)(F)F)c1	2	-0.4	4319	2	12	-28	4
O=C(/C=C/c1ccc(O)c(O)c1)OC1C(O)CC(OC(=O)/C=C/c2ccc(O)c(O)c2)(C(=O)O)CC1O (stereo unspecified)	-3	-0.8	3741	18	-2	-17	-12
COC(=O)c1ccc(CSc2nc(N)cc(N)n2)cc1	1	2.5	23371*	3	8	-15	-5
Nc1nc(NCc2ccc(Cl)cc2)nc(NCCO)c1[N+](=O)[O-]	6	0.8	6106	9	3	-19	-6
Cc1cc(/C=C2/C(=O)N(C)C(=S)N2C)ccc1N1CCCC1	.	.	15497	.	.	-66	0
COc1ccccc1C1CC(c2cccc(NS(C)(=O)=O)c2)=NN1S(=O)(=O)c1ccccc1 (stereo unspecified)	21	7.6	15699	-5	-4	-23	13
O=C(C1CC1)N1N=C(c2ccccc2)CC1(O)C(F)(F)F (stereo unspecified)	-1	6.9	4124	11	-7	-3	4
CCn1c(N)c(Br)c(=O)[nH]c1=O	11	6.7	4361	12	4	-55	4
CN1C(=O)N(CC(=O)N2CCN(S(=O)(=O)/C=C/c3ccccc3)CC2)C(=O)C12CCCCC2	5	2.0	8292	0	11	-13	.
CCS(=O)(=O)NCCCc1ccccc1	-2	2.4	3244	2	11	-6	1
O=c1c2ccccc2nc(C=Cc2cccc([N+](=O)[O-])c2)n1CCCO	-6	5.2	.	6	5	.	.
O=C1C=C(c2ccc3c(c2)oc2ccccc23)CC(c2ccc3c(c2)OCO3)C1 (stereo unspecified)	2	-4.3	.	3	9	.	.
COCCN(CCOC)C(=O)CN1C(=O)NC(Cc2c[nH]c3ccccc23)C1=O (stereo unspecified)	7	0.7	3649	-11	-8	-14	-1
Cc1ccc(S(=O)(=O)Nn2c(O)c(C=C3N=c4ccccc4=N3)sc2=S)cc1	-14	-0.4	5052	-2	1	-25	-8
CNC(=S)NN=C(C)c1ccc(Cl)c(Cl)c1	14	6.5	.	16	2	.	.

Source: PubChem BioAssay
